# Compound activity from PubChem.
# UUG fidelity = alters start codon recognition fidelity in yeast. 350,000 tested, 0.13% active. S. cerevisiae UUG-firefly luciferase reporter, luminescence/redox ratio. AID 602363. activity score, % at 18.7 µM;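 active = replicate mean at a twofold rise or more, about +100% in these data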;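 note: firefly luciferase made from a UUG start codon reports start codon fidelity; reporter light over untreated wells divided by growth signal over untreated wells; some hits fall short of that in this replicate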
# MT1-MMP act inh = MT1-MMP (human) activation inhibition; P50281; HT1080 RFP-PRO-GFP cells, GFP/RFP ratio fluorescence, overnight; percent of plate control window, DMSO zero; GFP/RFP ratio change, % at 20 µM; 360,000 tested, 0.061% active;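 active = GFP/RFP ratio change of at least 30% with cell ATP level not reduced by more than half and red fluorescence within 50% of control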; note: strong numbers were not always called active
#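 Test system: HT1080 cells expressing an RFP-PRO-GFP fluorescent reporter construct / Compound dosing: single-point 20 µM compound, 1% DMSO / Schedule: cells overnight before dosing, compound overnight, 37 °C, 5% CO2 / Evaluation: GFP/RFP fluorescence ratio / Control set: DMSO and RFP-L50D-GFP cell wells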
# Rce1 inhib = blocks yeast Ras-converting enzyme. calls only. yeast membranes, quenched prenylated peptide cleavage fluorescence. AID 2563. 290,000 tested, 0.27% active. Q03530;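 active = fall in fluorescence gain of 50% or more versus controls, with final raw signal at or below 3038400; inconclusive = same 50% fall but final raw signal above 3038400; inactive = fall in fluorescence gain under 50%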;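 note: plate controls were neutral control wells for no effect and wells lacking membranes for full effect; tested at 10 µM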
# Target sequence (Q03530 whole entry, looked up): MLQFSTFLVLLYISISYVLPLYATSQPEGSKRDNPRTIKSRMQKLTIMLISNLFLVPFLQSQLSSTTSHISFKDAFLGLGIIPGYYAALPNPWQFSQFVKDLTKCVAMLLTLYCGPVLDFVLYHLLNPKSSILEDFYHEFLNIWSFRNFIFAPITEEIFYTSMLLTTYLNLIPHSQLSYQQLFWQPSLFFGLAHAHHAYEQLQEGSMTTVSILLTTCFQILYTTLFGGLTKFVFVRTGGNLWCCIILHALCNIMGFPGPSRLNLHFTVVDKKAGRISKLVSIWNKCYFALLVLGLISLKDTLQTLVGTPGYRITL
# PABP polyA inh = blocks human PABP binding to poly(A) RNA; 290,000 tested, 1% active; AID 2014; inhibition, % at 35 µM; fluorescence polarization; P11940;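 active = 50% or more with normal probe brightness, or confirmed in later tests; inconclusive = above 50% with abnormal brightness, or retests that disagree; inactive = below 50% or failed in later tests; about a fifth of its hits are not listed in these tables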;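 note: calls also rest on retests at 20 µM and on dose response follow-up; controls were probe without protein and protein plus probe with vehicle; some compounds called inactive have numbers as strong as hits; many hits fall short of the cut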
# Target sequence (P11940 whole entry, looked up): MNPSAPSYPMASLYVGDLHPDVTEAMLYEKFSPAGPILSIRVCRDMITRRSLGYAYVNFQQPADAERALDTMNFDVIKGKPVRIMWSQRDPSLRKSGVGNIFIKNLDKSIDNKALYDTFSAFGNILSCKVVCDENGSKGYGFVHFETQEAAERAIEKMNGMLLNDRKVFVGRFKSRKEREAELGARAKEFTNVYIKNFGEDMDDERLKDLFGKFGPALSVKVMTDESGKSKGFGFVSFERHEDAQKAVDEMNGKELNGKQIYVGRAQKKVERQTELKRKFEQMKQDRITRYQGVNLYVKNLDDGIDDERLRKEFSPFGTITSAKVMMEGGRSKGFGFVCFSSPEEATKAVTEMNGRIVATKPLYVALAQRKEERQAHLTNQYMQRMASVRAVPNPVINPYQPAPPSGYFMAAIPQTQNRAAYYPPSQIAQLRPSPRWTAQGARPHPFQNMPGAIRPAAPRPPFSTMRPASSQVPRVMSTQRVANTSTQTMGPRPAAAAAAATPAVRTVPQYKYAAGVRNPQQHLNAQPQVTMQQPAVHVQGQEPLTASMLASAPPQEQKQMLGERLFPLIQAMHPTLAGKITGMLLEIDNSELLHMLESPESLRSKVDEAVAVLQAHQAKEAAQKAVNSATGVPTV
# eIF4H FP inh = inhibitors of RNA binding by human eIF4H. inhibition, % at 35 µM. Q15056. 290,000 tested, 0.94% active. eIF4H fluorescence polarization binding assay. AID 2012;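 active = 50% or more with normal probe brightness, or confirmed in later tests; inconclusive = above 50% with abnormal brightness, or retests that disagree; inactive = below 50% or failed in later tests; about a fifth of its hits are not listed in these tables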;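 note: calls also rest on retests at 20 µM and on dose response follow-up; 0% = protein and probe with vehicle and 100% = probe without protein; strong numbers were not always called active; many hits fall short of the cut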
# CSC inhib = blocks cancer stem cells; cancer stem cell-like cells viability, luminescence; inhibition, % at 7.5 µM; 300,000 tested, 1.1% active;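 active = mean at 75% or more and at least half the replicates too; inconclusive = mean and replicates disagree; tested in HMLE shEcad cells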;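 note: 0% = median of negative and 100% = median of positive control wells; the first replicate is given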
# HIV Env fusion = blocks HIV Env-driven cell-cell fusion | HeLa-JRFL Env/CEM21 cell fusion, luciferase | inhibition, % at 12.3 µM | 360,000 tested, 1.1% active;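 active = mean replicate inhibition score of at least 50 and every replicate individually at or above 50; inconclusive = only one of the two criteria met; inactive = mean below 50 and not all replicates reaching 50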;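 note: 0% = plate neutral controls and 100% = maraviroc near 300 nM; one replicate is shown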
# MT1-MMP act inh RFP = also measured in MT1-MMP act inh; calls as there; RFP signal change, %; measured here: RFP expression control read;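 0 = vehicle wells; hits needed this value within 50% of zero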
# * marks the source's active call; other numbers are inactive results; i = inactive; ? = inconclusive; nt = not tested or not shown.
SMILES,UUG fidelity,MT1-MMP act inh,MT1-MMP act inh RFP,Rce1 inhib,PABP polyA inh,eIF4H FP inh,CSC inhib,HIV Env fusion
CC(C)OCC(O)Cn1c(N2CCCC2)nc2c1c(=O)n(C)c(=O)n2C (stereo unspecified),2,-2,3,i,-12,0,-11,-6
CCOC(=O)c1c(C)sc2c1N(C(=O)CN(CC)CC)c1cc(Cl)ccc1S2,13,-2,-1,i,5,0,-3,nt
Cc1ccccc1C(=O)Nc1ccc2c(c1)CCCN2C(=O)c1cccs1,0,-2,-8,i,8,-9,-9,1
CCn1c(SCC(=O)N2CCCC2)nnc1-c1ccc(N)cc1,-15,-1,2,i,10,-1,-5,nt
O=C(CSc1nncn1-c1ccccc1)Nc1ccccc1,-4,-1,6,i,-4,-6,-15,-27
CC(=O)/C(C(=N)N1CCN(Cc2ccccc2)CC1)=C(\C)O,-9,6,1,i,24,4,0,nt
CSCCC(NS(=O)(=O)c1ccccc1F)C(=O)NNC(=O)c1csc(N2CCOCC2)n1 (stereo unspecified),4,-1,2,i,nt,nt,-11,nt
CC1CCN(C(=O)Cn2cc3c(n2)CCCC3)CC1,2,-1,2,i,9,-5,nt,-6
CCN(CCCNC(=O)CN1C(=O)COc2ccccc21)c1cccc(C)c1,-19,3,-2,i,-8,-5,-1,nt
CCOC(=O)c1cccc(-n2cccc2/C=C2\NC(=O)N(CC(=O)O)C2=O)c1,0,0,0,nt,nt,nt,-3,14

# Single records (already shown).
# `CC(=O)/C(C(=N)N1CCN(Cc2ccccc2)CC1)=C(\C)O` across the screens: UUG fidelity = -9; MT1-MMP act inh = 6; MT1-MMP act inh RFP = 1; Rce1 inhib = i; PABP polyA inh = 24; eIF4H FP inh = 4; CSC inhib = 0; HIV Env fusion = nt
# `CCN(CCCNC(=O)CN1C(=O)COc2ccccc21)c1cccc(C)c1` across the screens: UUG fidelity = -19; MT1-MMP act inh = 3; MT1-MMP act inh RFP = -2; Rce1 inhib = i; PABP polyA inh = -8; eIF4H FP inh = -5; CSC inhib = -1; HIV Env fusion = nt

# (cont.)
SMILES,UUG fidelity,MT1-MMP act inh,MT1-MMP act inh RFP,Rce1 inhib,PABP polyA inh,eIF4H FP inh,CSC inhib,HIV Env fusion
O=C(O)c1nn(-c2cccc(C(F)(F)F)c2)ccc1=O,nt,0,-2,i,3,-14,1,-11
COc1ccccc1OCC(O)Cn1c(Br)nc2c1c(=O)[nH]c(=O)n2C (stereo unspecified),-2,1,1,i,0,1,15,nt
Cc1cc(NC(=O)CSCC(=O)Nc2cc(C(F)(F)F)ccc2N2CCOCC2)no1,-16,-2,0,nt,nt,nt,-4,15
Cn1c(Cc2ccccc2)[n+](C)c2ccccc21,nt,-3,2,i,-6,-8,nt,5
Cc1ccccc1CN1CCCC(C(=O)Nc2ccc(-c3ccn[nH]3)cc2)C1 (stereo unspecified),-16,2,-2,nt,-5,-5,-7,-12
CCCCC(=O)Nc1c(C)cc(C)cc1Cl,-15,2,2,i,6,-2,-9,-22
CC1CCCCN1C(=O)C1CCCCN1S(=O)(=O)c1cccc([N+](=O)[O-])c1 (stereo unspecified),1,-1,-3,i,-6,-15,14,2
c1ccc2c(c1)CNc1ccccc1C2,-2,-4,7,i,5,-1,-4,-96
NC(=O)c1sc(=S)n2c1[nH]c(=O)c1sccc12,-19,-99,5,i,39,4,-10,6
COc1ccc(-n2nc3c(c2NC(=O)c2ccc(S(=O)(=O)N4CCOCC4)cc2)CS(=O)C3)cc1 (stereo unspecified),nt,-2,1,i,4,3,-45,-51
COC(=O)c1sccc1NC(=O)COc1cccc(C)c1,nt,-3,1,i,-7,-11,22,-263
O=C(NCC1CCCO1)C(c1ccc(F)cc1)N(C(=O)Cn1nnc(-c2ccc(F)cc2)n1)c1cccc(O)c1 (stereo unspecified),nt,nt,nt,i,-4,-7,-4,-3
CC(/C=N/NC(=O)Cn1nccc1C)=C\c1ccc(C(C)C)cc1,-38,-8,-4,i,3,3,22,-16
Cc1ccc(C)c2[nH]c(=O)c(CCNC(=O)c3cc4ccccc4o3)cc12,-3,-1,1,i,-4,-5,9,-7
Cc1ccc(N(CC(=O)NC2CCCCC2)C(=O)CNC(=O)c2ccco2)cc1F,5,1,2,i,-4,-2,nt,0
Cn1cnc2c(cnn2-c2ccccc2)c1=O,-7,3,-1,i,1,0,-4,-11
O=C1c2ccccc2C(=O)N1CCCc1nc(-c2ccncc2)no1,-10,2,6,i,-2,3,-12,-20
CCOc1ccccc1N1CCN(C(=O)c2c(-c3ccccc3Cl)noc2C)CC1,nt,-1,-3,i,-13,-2,2,-65
COc1ccc2c(c1)S/C(=C\C(=O)c1ccncc1)N2C,48,2,2,i,29,-15,-9,nt
COc1ccc(-n2c(-c3ccco3)n[nH]c2=S)cc1,-24,5,9,i,5,0,nt,15
CCOc1ccccc1NC(=O)/C=C/C(N)=O,-14,12,7,i,2,1,3,nt
O=c1[nH]c(=S)[nH]c2c1C(c1ccc(Cl)cc1)OC(CCc1ccccc1)C2 (stereo unspecified),-9,0,-6,nt,nt,nt,nt,-38
O=C(NC(=Nc1ccccc1)N1CCOCC1)Nc1ccccc1,-9,0,4,nt,4,0,nt,nt
CCOc1ccc(S(=O)(=O)NC(C)C(=O)NCc2ccc3c(c2)OCO3)cc1 (stereo unspecified),16,1,1,i,10,6,19,5
O=C(O)c1ccc(NS(=O)(=O)c2ccc3c(c2)C(=O)c2cc(S(=O)(=O)Nc4ccc(C(=O)O)cc4)ccc2-3)cc1,nt,6,8,i,2,14,nt,-24
COCCNc1nc(NCc2ccc(C)cc2C)c2sccc2n1,-4,-4,-14,nt,nt,nt,nt,-13
COc1ccc(OC)c(-n2c(-c3cccc(S(=O)(=O)N(C)C)c3)n[nH]c2=S)c1,-27,2,2,i,4,2,-3,-10
CN1CCN(C(=S)Nc2ccccc2Cl)CC1,-18,4,1,i,2,6,-5,nt
COc1ccccc1CNC(=O)C1(C)CCN1C(=O)C1(c2ccccc2)CC1 (stereo unspecified),2,1,1,nt,nt,nt,nt,-16
CC(NC(=O)c1ccco1)C(=O)OCc1cccc(C(F)(F)F)c1 (stereo unspecified),-3,-3,7,nt,nt,nt,-21,nt
CN(C)C(=O)CCc1ccc2c3c([nH]c2c1)[C@]1(C)[C@@H](C(=O)N2CCCCC2)C[C@H](CC(=O)NCC24CC5CC(CC(C5)C2)C4)C(=O)N1CC3,17,0,-3,nt,nt,nt,nt,-28
C[C@@]12C(=O)Nc3ccccc3C(=O)N1[C@H]1c3cc(Cl)ccc3OC[C@@H]1[C@@H]2c1ccccc1,-16,-9,-4,nt,nt,nt,nt,-2
Cc1nn(CCC#N)c(NC(=O)c2ccc(Cl)cc2)c1P(=O)(Nc1ccc([N+](=O)[O-])cc1)N1CCOCC1 (stereo unspecified),-6,8,4,i,-2,-10,-21,2
O=C(CN(c1cccc(C(F)(F)F)c1)S(=O)(=O)c1ccc(Cl)c([N+](=O)[O-])c1)NCc1ccc(F)cc1,-10,4,-2,i,34,-2,185*,18
CN(C)C(=O)c1ccc2c(c1)C1C3CCC(C3)C1C(c1ccccc1)N2 (stereo unspecified),nt,-4,-4,i,-6,-9,-15,3
Cc1cc2ncn(C(=O)c3c(-c4ccccc4Cl)noc3C)c2cc1C,3,-1,-1,i,6,-1,-5,-9
CCOC(=O)[C@H]1[C@H]2COc3ccccc3[C@@H]2N2C(=O)c3cc(C)ccc3NC(=O)[C@@]12C,-18,-1,-2,nt,nt,nt,-19,-19
COc1ccc(C(=O)CC(=O)c2ccc(C)cc2)c(O)c1,-21,-5,1,i,-7,-7,0,-9
Cc1nc(NC(=O)CN2CC(C)OC(C)C2)sc1C(=O)N(C)C (stereo unspecified),-14,-1,-3,i,-2,-11,-3,-95
O=C1NC(=O)C(CC(=O)N(Cc2ccco2)C2(C(=O)NC3CCCCC3)CCCCC2)N1 (stereo unspecified),15,-5,2,nt,-11,-11,-5,nt
NC(=O)CC(NC(=O)c1ccc(Br)cc1)c1ccc(NCCc2ccc(F)cc2)c([N+](=O)[O-])c1 (stereo unspecified),-10,14,-3,i,-11,-1,15,15
C#CCOCCOCCOCCNc1nc(N2CCN(C(=O)CCCCCCCCCCNC(=O)[C@@H](CCSC)n3cc(CCO)nn3)CC2)nc(N2CCN(C(=O)CCCCCCCCCCNC(=O)[C@H](CO)n3cc(CCCCCN)nn3)CC2)n1,-6,8,5,nt,nt,nt,0,nt
CCOc1ccccc1C1CC(=O)Nc2cc3c(cc21)OCO3 (stereo unspecified),-2,6,-12,i,-2,5,62,?
O=C(c1ccc(-n2c(SCc3cc(F)ccc3F)nc3ccccc3c2=O)cc1)N1CCOCC1,-14,-4,-8,i,6,4,-2,21
C=C(CCO)C1=CCN(S(=O)(=O)C(C)(C)C)[C@@H]1CCO,-4,-1,4,nt,nt,nt,nt,17
CCC1CCCCN1S(=O)(=O)c1ccccc1 (stereo unspecified),-7,0,-2,i,-3,-2,-4,17
Cc1onc(-c2c(Cl)cccc2Cl)c1NC(=O)NNc1ccccn1,nt,3,5,nt,1,-14,3,1
CCN1CCN(P2(=O)C=C(c3ccccc3)OC(c3ccccc3)=C2)CC1,-15,2,3,i,2,-5,-16,nt
COc1ccc(/C=C(/NC(=O)c2ccco2)C(=O)N2CCOCC2)cc1,-12,-1,2,i,-12,-4,-5,-1
COCCNC(=O)CN(C(=O)c1ccc(N2CCCC2)nc1)c1ccccc1,nt,-4,-2,i,2,5,-16,-12
# (more compounds)
SMILES,UUG fidelity,MT1-MMP act inh,MT1-MMP act inh RFP,Rce1 inhib,PABP polyA inh,eIF4H FP inh,CSC inhib,HIV Env fusion
CN(C)S(=O)(=O)Oc1ccc(C(=O)Nc2ccc([N+](=O)[O-])cc2)cc1,-5,5,-12,i,12,13,-2,34
CCCCC(CC)COC(=O)C(C#N)=C(c1ccccc1)c1ccccc1 (stereo unspecified),13,-11,-12,nt,nt,nt,43,nt
CCCC(=O)c1ccc(N2CCCC2)c(F)c1,0,-2,1,i,5,-14,5,-54
O=C(CCN1C(=O)/C(=C/c2ccco2)SC1=S)Nc1ccc(C(=O)O)c(O)c1,-13,3,13,i,84*,86*,nt,-13
CCOC(=O)c1cnc2cc(C)nn2c1C,-8,2,3,i,11,3,5,nt
Cc1nc(CC(=O)c2ccc(O)cc2O)cs1,-18,-4,-7,i,9,-2,6,-36
COc1cc(/C=C(\C#N)c2nc3ccccc3[nH]2)cc(Br)c1OCc1ccc(F)cc1,1,-3,0,i,-4,-3,34,nt
O=C(COc1ccc2c(c1)oc(=O)c1ccccc12)NCC1CCC(C(=O)O)CC1 (stereo unspecified),-11,1,1,i,2,6,-7,nt
NC(=O)C1(N2CCCCC2)CCN(C(=O)CCCn2c(=O)[nH]c3ccsc3c2=O)CC1,-12,-2,-1,nt,5,-6,-9,38
O=S(=O)(Nc1ccc(-c2nc3cccnc3s2)cc1)c1ccc(Cl)s1,-16,2,-5,i,-6,6,31,nt
CC(=O)c1cccc(NC(=S)NC(=O)c2ccccc2C)c1,nt,1,1,i,5,6,-1,-6
Cc1ccccc1CN1CCc2c(OCC(=O)N3CCCCC3)cccc2C1=O,nt,1,-4,i,-5,-2,1,4
CCc1[nH]nc(C(=O)N2CCCC(C(=O)c3cccc(C(F)(F)F)c3)C2)c1C (stereo unspecified),18,3,-6,i,-3,-1,13,0
COc1ccc2c(C(=O)CN(C)C3CCCCC3)c[nH]c2c1,nt,-4,1,i,-3,8,-2,nt
C=CCN(c1ccccc1C(=O)NCC(=O)O)S(=O)(=O)c1ccccc1C,-5,1,2,i,6,-6,-5,5
Cn1cc(S(=O)(=O)N2CCNCC2)cc1C(N)=O,-5,-1,5,nt,nt,nt,15,2
Cc1cccc(C(=O)N2c3ccccc3C(=O)OC2c2ccc3c(c2)OCO3)c1 (stereo unspecified),-25,3,-2,i,4,3,3,nt
